Sa ugtP lethal: compounds lethal to S. aureus RN4220 ugtP deletion mutant | AID 1259309 | OD600 growth, 16 h; some inactives read as strong as hits | hit rate 0.54% among 330,000 | growth inhibition, % (concentration not given with the values);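 active = z-score under -3 and OD600 up to 0.15 on both plates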;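 also: plate controls were untreated wells for no effect and antibiotic for full effect; wells of about 80 µL received 100 nL stock; the first replicate is given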
Mtb hypoxia rep: reduces hypoxia-regulated biosensor signal in M. tuberculosis. M. tuberculosis hypoxia-regulated fluorescent reporter, fluorescence. fluorescence inhibition, % (concentration not given with the values). hit rate 0.1% among 300,000. AID 1159583;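 active = 35 to 45% if threefold the growth effect, above 45% if 1.5-fold the growth effect; inactive = the rest, general growth blockers included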;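 also: wells of about 50 µL received 100 nL stock; 0% = vehicle wells and 100% = reference inhibitor wells; whole bacteria with a GFP reporter of the hypoxia response; strong numbers were not always called active; many hits fall short of the cut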
RN4220 kill: S. aureus RN4220 growth inhibition; OD600, 16 h; inhibition, % (concentration not given with the values); hit rate 0.33% among 330,000; AID 1259311;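 active = z-score of -3 or lower and OD600 up to 0.18 on both plates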;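 also: plate controls were untreated cells for no effect and reference antibiotic for full effect; stock transfer was 100 nL into about 80 µL; one replicate is shown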
PrP UTR inh: suppresses PrP 5' UTR mRNA reporter expression | cell-based PrP 5' UTR mRNA reporter, plate reader | hit rate 0.35% among 340,000 | inhibition, % (no concentration beside the values);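 active = every replicate at 50% or more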;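 also: 0 = median of the neutral control wells; tested in H4 reporter cells; numbers are from one replicate; inactives centre near -14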
Bead autofluor: flagged as autofluorescent in microsphere protease counterscreen; hit rate 3.1% among 360,000; fluorescence intensity (concentration not given with the values); compound autofluorescence counterscreen, microsphere flow cytometry; active compounds read high;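 active = at least 3 SD above the mean of all compounds, about 16000 in these data; inconclusive = too few beads counted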;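 also: 100 nL of 1 mM stock went into each well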
BJeLR lethal: BJeLR cell viability loss; hit rate 0.17% among 300,000; inhibition, % (concentration not given with the values); BJeLR (HRASV12) viability, CellTiter-Glo ATP luminescence, 48 h; reference of the scale not given here;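 active = replicate mean above 50%; inconclusive = above 50% but judged a plate artefact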;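 also: 50 nL library stock added to about 25 µL; numbers are from one replicate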
Mtb hypoxia rep growth: further read-out of Mtb hypoxia rep, marked with its call; growth inhibition, %; measured here: M. tuberculosis growth (absorbance);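 0% = vehicle and 100% = reference antibiotic; read after six days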
* marks the source's active call; other numbers are inactive results; ? = inconclusive; . = no result given.

Values in the order – Sa ugtP lethal | Mtb hypoxia rep | Mtb hypoxia rep growth | RN4220 kill | PrP UTR inh | Bead autofluor | BJeLR lethal
- O=C(CC1C(=O)NCCN1C/C=C/c1ccccc1)NCCc1cnccn1 (configuration not stated)
 : 0 | 4 | 4 | 3.9 | -18 | 6001 | 12
- CCN1/C(=C/c2ccc3cccc(C)c3[n+]2CC)Sc2ccccc21
 : 100* | . | . | 100* | -26 | 8752 | 34
- O=C(CC1C=Cc2ccccc2N1C(=O)c1ccccc1)c1ccccc1 (configuration not stated)
 : . | . | . | . | -7 | 3696 | -1
- COc1ccc(NC(=O)CSc2nncs2)cc1OC
 : 5 | -7 | -8 | -1.0 | -10 | 2988 | 0
- COc1cccc(/C=C2/CN(C)CC3=C2OC(N)=C(C#N)C3c2cccc(OC)c2)c1 (configuration not stated)
 : 4 | . | . | 0.2 | 9 | 5156 | 1
- COc1ccc(OCC(O)Cn2c(=N)n(CCN3CCCCC3)c3ccccc32)cc1 (configuration not stated)
 : -8 | . | . | -0.6 | -25 | 5171 | .
- Cc1ccc(S(=O)(=O)N2CCCC2C(=O)O)cc1 (configuration not stated)
 : 5 | -14 | -10 | 3.1 | -13 | ? | -2
- COc1ccc2c(c1)[nH]c1c(=O)n(/N=C/c3ccc(OC)c(CN4CCCCC4)c3)cnc12
 : . | . | . | . | -21 | 3507 | -1
- Cc1ccc(CC(=O)NCc2ccc3c(c2)OCO3)cc1
 : 0 | . | . | -6.5 | -17 | 4730 | 10
- CCc1ccc(CNC(=O)CCC(=O)n2ncc3cc(C)ccc32)cc1
 : 2 | 6 | 11 | 7.2 | -10 | 6987 | -7
- CC(=O)c1sc(-c2ccccc2)cc1NS(=O)(=O)c1ccccc1
 : 7 | 4 | -1 | 3.6 | -19 | 5131 | 4
- CC(=O)Nc1ccc(Oc2cnccn2)cc1
 : 4 | -3 | -7 | 2.9 | 1 | 1980 | 12
- C=CCSc1nnc2c(n1)OC(c1c(C)[nH]n(-c3ccccc3)c1=O)Nc1ccccc1-2 (configuration not stated)
 : -2 | 19 | 14 | -9.9 | -23 | 2829 | -6
- O=C1CNC(=S)N1CCCc1ccccc1
 : 8 | 5 | 5 | 2.1 | -13 | 4993 | -20
- CCOc1ccccc1N1C(=O)CC(N(O)c2ccccc2)C1=O (configuration not stated)
 : 10 | 4 | 11 | 4.1 | -22 | 5948 | -10

(further entries)
Values in the order – Sa ugtP lethal | Mtb hypoxia rep | Mtb hypoxia rep growth | RN4220 kill | PrP UTR inh | Bead autofluor | BJeLR lethal
- CCCCCC1CCC(C(=O)NCCN2CCOCC2)CC1 (configuration not stated)
 : 10 | 8 | 3 | 2.2 | -18 | 3626 | -6
- Nc1c2c(=O)oc(-c3ccccc3)cc2nn1-c1ccccc1
 : -4 | 9 | 15 | -0.4 | -60 | 9548 | -4
- COc1ccc(-c2ccnc3nc(N4CCN(c5ccccc5)CC4)nn23)cc1
 : -8 | 6 | 17 | 10.0 | -6 | 22429* | -4
- Cc1ccc(CN2CCN(C3CCCC3)C(CCO)C2)s1 (configuration not stated)
 : 6 | -4 | 1 | 15 | -13 | 4605 | -1
- COc1cc(C2NC(=S)NC(C)=C2C(=O)c2ccccc2)ccc1O (configuration not stated)
 : 0 | 16 | 10 | 1.7 | -7 | 2504 | 8
- CN1C(=O)C(=O)/C(=C(/O)c2ccc(Br)cc2)C1c1cccc([N+](=O)[O-])c1 (configuration not stated)
 : 10 | -1 | -1 | 4.4 | -31 | 4081 | -9
- O=[N+]([O-])c1cccc(C2=NCCS2)c1
 : 4 | 10 | 5 | 0.3 | -23 | 2552 | -6
- Cc1nc2nc3c(cn2n1)C(=O)CC(c1ccccc1)C3 (configuration not stated)
 : 1 | 12 | 4 | 4.1 | -9 | 10417 | -7
- CN(C)C(=O)N1CCNCC1
 : -2 | 3 | -3 | -2.7 | -20 | 3829 | -1
- CSc1ccccc1OCc1cc(C(=O)NCCN2CCCc3ccccc32)no1
 : -13 | -8 | 5 | -3.7 | -23 | 4162 | -6
- CCOc1ccc(CN2CCNC(=O)C2CC(=O)NCc2csc(C(C)C)n2)cc1 (configuration not stated)
 : 14 | 1 | -2 | 7.1 | -1 | 4192 | -7
- CC(C)CCNC(=O)c1cc(C(=O)c2cc(Br)ccc2O)cn(CCC(C)C)c1=O
 : -9 | 8 | 0 | 3.6 | -17 | 2030 | 6
- Cc1ccc(Oc2nc3ccccn3c(=O)c2/C=C(\C#N)C(=O)Nc2c(C)n(C)n(-c3ccccc3)c2=O)c(C)c1
 : 12 | 1 | -3 | 0.8 | -17 | 2214 | -5
- CCOC1(OCC)C(c2ccc(Cl)cc2)C(C#N)(C#N)C1(OCC)OCC (configuration not stated)
 : 35 | 9 | 5 | 0.1 | -13 | 4016 | -5
- COCCn1cnc2c(c1=O)c1nc3ccccc3nc1n2/N=C/c1ccc(OC)c(OC)c1
 : . | . | . | . | -31 | 3798 | 0

Further compounds.
Values in the order – Sa ugtP lethal | Mtb hypoxia rep | Mtb hypoxia rep growth | RN4220 kill | PrP UTR inh | Bead autofluor | BJeLR lethal
- Clc1ccc2c(c1)C(c1ccccc1Cl)=NCc1nnc(N3CCN(CCOc4ccccc4)CC3)n1-2
 : -18 | 3 | 7 | 0.8 | -4 | 2407 | -11
- CC(=O)Nc1ccc(S(=O)(=O)N[C@@H](C)C(=O)N(C)Cc2cccs2)cc1
 : 2 | 1 | 3 | 3.9 | -18 | 3777 | .
- O=c1[nH]c(=S)n(-c2ccccc2)c(O)c1/C=N/N1CCOCC1
 : 7 | -8 | 3 | -1.6 | -13 | 2548 | -5
- Cc1ccc(Nc2nnns2)cc1
 : 5 | 0 | 7 | -3.3 | -19 | 2434 | -14
- O=C(Nc1ccccc1)C1=C[C@H](c2csc3ccccc23)C[C@H](OCc2ccc(CO)cc2)O1
 : . | . | . | . | -14 | 4035 | 4
- COc1ccc(NC(=O)C23CCC(C2)C(C)(C)C3=O)cc1 (configuration not stated)
 : 2 | . | . | 1.6 | -18 | 2913 | 0
- O=C(O)c1ccc(N/N=C/c2ccc(OC(=O)c3cccc(Cl)c3)cc2)cc1
 : . | . | . | . | 47 | 4177 | 3
- COc1ccc(C(=O)Nc2ccc(S(=O)(=O)N3CCN(C)CC3)cc2)cc1
 : 3 | 2 | 11 | -0.7 | -54 | 5222 | -3
- Cc1ccc(CNC(=O)C2CC(c3ccccc3C(F)(F)F)=NO2)o1 (configuration not stated)
 : 1 | -2 | 3 | -1.6 | -20 | 3022 | -3
- CCCCCn1nc(C(=O)N(CC(C)C)c2c(N)n(CCCC)c(=O)[nH]c2=O)c2ccccc2c1=O
 : -1 | -5 | 7 | 1.6 | 5 | 6010 | 3
- O=c1ncn(-c2cccc([N+](=O)[O-])c2)c2ccccc12
 : 8 | 7 | -7 | 4.4 | -12 | 4114 | 0
- O=c1c2ccccc2nc(Cc2ccccc2)n1-c1cccc(O)c1
 : 27 | 2 | -3 | -13 | 1 | 4330 | 0
- Nc1nonc1-n1nnc(C(=O)N/N=C/c2ccc(O)cc2)c1CN1CCCCCC1
 : . | . | . | . | -31 | 6420 | 7
- CCCCn1c(N)c(C(=O)NCc2cccs2)c2nc3ccccc3nc21
 : -10 | 1 | -1 | -3.5 | -15 | . | -6
- Cc1cc(OCc2cc(C(=O)N(C)CCCN3CCOCC3)no2)cc(C)c1Cl
 : 1 | 2 | 9 | 8.8 | -31 | 5813 | 3

Laid out differently: results already given.
compound: O=c1ncn(-c2cccc([N+](=O)[O-])c2)c2ccccc12
- Sa ugtP lethal = 8
- Mtb hypoxia rep = 7
- Mtb hypoxia rep growth = -7
- RN4220 kill = 4.4
- PrP UTR inh = -12
- Bead autofluor = 4114
- BJeLR lethal = 0
compound: Nc1nonc1-n1nnc(C(=O)N/N=C/c2ccc(O)cc2)c1CN1CCCCCC1
- Sa ugtP lethal = .
- Mtb hypoxia rep = .
- Mtb hypoxia rep growth = .
- RN4220 kill = .
- PrP UTR inh = -31
- Bead autofluor = 6420
- BJeLR lethal = 7
compound: O=c1c2ccccc2nc(Cc2ccccc2)n1-c1cccc(O)c1
- Sa ugtP lethal = 27
- Mtb hypoxia rep = 2
- Mtb hypoxia rep growth = -3
- RN4220 kill = -13
- PrP UTR inh = 1
- Bead autofluor = 4330
- BJeLR lethal = 0

Next part.
| canonical_smiles | Sa ugtP lethal | Mtb hypoxia rep | Mtb hypoxia rep growth | RN4220 kill | PrP UTR inh | Bead autofluor | BJeLR lethal |
| --- | --- | --- | --- | --- | --- | --- | --- |
| CCCC12CN3CCN(CC(C3)/C1=N\NC(=O)Nc1ccccc1)C2 | . | . | . | . | -9 | 2608 | -3 |
| FC(F)(F)c1cc(-c2ccco2)nc(-n2nc(C(F)(F)F)cc2C2CC2)n1 | 6 | -9 | 0 | 2.5 | 11 | 20606* | -1 |
| CCN(CC1CCCO1)C(=O)c1cc(COc2ccc(F)cc2F)on1 (configuration not stated) | -2 | 3 | 10 | -0.5 | -21 | 6455 | 4 |
| CCN1/C(=C\C(=S)Nc2ccccc2)Sc2ccccc21 | 0 | 7 | 1 | -4.4 | -39 | 3324 | 6 |
| O=C(COC(=O)c1ccc(Br)o1)NCc1ccc2c(c1)OCO2 | 6 | 12 | 10 | -2.1 | -13 | 6179 | . |
| COc1ccc(NS(=O)(=O)N2CCOCC2)cc1 | 3 | 5 | 7 | 2.6 | -9 | 5483 | -11 |
| CC(=Nc1ccccc1)C1=C(O)CCCC1=O | 1 | 0 | -2 | 5.1 | 6 | 2638 | -1 |
| Cc1ccc(Cn2ccc(NC(=O)CCSc3nc(-c4ccco4)cc(C(F)(F)F)n3)n2)cc1 | -13 | 5 | 8 | 6.6 | -4 | 3231 | -2 |
| CC(C)c1ccc(NC(=O)CN2CCN(c3ccccn3)CC2)cc1 | -1 | -1 | 0 | -2.5 | . | 3863 | -4 |
| Cc1ccc(NC(=O)c2ccc(Cl)c(S(=O)(=O)N3CCCC3)c2)nc1 | -2 | 3 | 5 | 0.1 | -27 | 5613 | 1 |

Other structures
| canonical_smiles | Sa ugtP lethal | Mtb hypoxia rep | Mtb hypoxia rep growth | RN4220 kill | PrP UTR inh | Bead autofluor | BJeLR lethal |
| --- | --- | --- | --- | --- | --- | --- | --- |
| CC(=O)N/C(=C/c1ccc2c(c1)OCO2)C(=O)NCC(=O)O | -2 | 5 | 3 | -1.8 | -10 | 1982 | -5 |
| COc1cccc2sc(N)nc12 | -1 | 11 | 8 | 4.8 | 0 | 4189 | . |
| Cc1cc(C)nc(NN=Cc2ccc([N+](=O)[O-])o2)n1 | 58 | . | . | 26 | . | . | . |
| CCOCC(=O)N(CC)Cc1ccccc1 | 9 | 7 | 5 | 1.9 | -15 | 3381 | -11 |
| CCCCNC(=O)c1cn(CC)c2ccc(S(=O)(=O)N3CCCCCC3)cc2c1=O | -3 | 4 | 4 | 1.9 | -1 | 6217 | -5 |
| CN1/C(=C\C=NNC(=O)c2cccnc2)C(C)(C)c2ccccc21 | -6 | -10 | 2 | 1.5 | . | . | . |
| COCc1cc(C)nc(Oc2ccccc2)c1C#N | 3 | 10 | 9 | 17 | -20 | 3417 | 1 |
| O=C(Nc1nnc(CCN2CCCCC2)s1)c1ccc(Cl)cc1Cl | 1 | 12 | 3 | 5.2 | -11 | 3525 | 6 |
| Cc1ccc(C(=O)C(C)OC(=O)C2CCN(c3ccc(C(F)(F)F)cn3)CC2)cc1C (configuration not stated) | 14 | 7 | 4 | 5.1 | -16 | 5563 | -10 |
| CC(C)(C)c1ccc(NC(=O)COC(=O)C2=COCCO2)cc1 | 2 | 5 | 3 | 8.8 | -24 | 2929 | -11 |

The list goes on:
| canonical_smiles | Sa ugtP lethal | Mtb hypoxia rep | Mtb hypoxia rep growth | RN4220 kill | PrP UTR inh | Bead autofluor | BJeLR lethal |
| --- | --- | --- | --- | --- | --- | --- | --- |
| O=C(NC1CCCc2ccccc21)c1n[nH]c(=O)c2ccccc12 (configuration not stated) | 1 | 3 | 7 | 0.2 | -7 | 3976 | 14 |
| Cc1ccc(C2C=NN(c3ccccc3)C2=O)cc1 (configuration not stated) | 2 | -4 | -3 | 2.5 | -18 | 3406 | -6 |
| N#Cc1cn(-c2ccccc2)nc1-c1ccccc1 | -1 | 4 | 4 | 0.9 | -18 | 9514 | -11 |
| Clc1ccc(-c2cc(CN3CCOCC3)no2)cc1 | 9 | . | . | 2.5 | -11 | 3624 | 3 |

Compound activity: PubChem, several laboratories
